Screening data deposited in PubChem BioAssay by National Center for Advancing Translational Sciences (NCATS).
Menin MLL FP FL = displaces fluorescein MLL peptide from human menin | Fluorescence polarization, fluorescein-MLL peptide displacement from menin | FP activity change, % at 61.4 µM | 290,000 tested, under 10 active | AID 1766; inconclusive = falling polarisation curve, or a change in total fluorescence; inactive = total fluorescence flat and polarisation flat or rising; no compound was filed as active; the % refers to the polarisation; negative = inhibition;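 also: % of control where 0% means no effect; inhibitors lower the polarisation; unlabelled MLL peptide was the positive control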
ClpP mod = qHTS Assay for Activators of ClpP; purified B. subtilis ClpP, FRET peptide cleavage, 20 min; Potency, µM (titrated, usually from 57.5 µM), for the others: at the highest dose activity change, negative = active; 340,000 compounds, 1.9% hits; active = well fitted falling curve with a large enough effect; inconclusive = small, poorly fitted or top-dose-only effect; inactive = no such curve, though single readings can be large or run the other way; also: potency is read from the fitted curve at half-maximal effect; the source files actives as falling curves though it sought activators and does not explain the sign; nearly all actives have a fitted effect of over 65% in size; many hits overshoot -100%
Target sequence (P80244 whole entry, looked up): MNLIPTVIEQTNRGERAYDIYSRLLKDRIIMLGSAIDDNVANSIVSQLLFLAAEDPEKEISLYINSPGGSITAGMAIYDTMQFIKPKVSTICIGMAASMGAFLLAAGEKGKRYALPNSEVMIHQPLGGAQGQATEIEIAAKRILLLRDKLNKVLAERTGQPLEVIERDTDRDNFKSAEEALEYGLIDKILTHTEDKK
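ClpP 10 microg/mL final, pH 8 Tris/KCl buffer with BSA, glycerol, Tween-20; compound pinned in; FRET-FV substrate; RT 20 min; Ex320/Em430; ΔFRET vs ADEP 5.8 microM, DMSO, no enzyme.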
Sfp PPTase inh = blocks B. subtilis Sfp PPTase activity; Q9F4F7; Biochemical Sfp PPTase activity, qHTS; Potency, µM, for the others: max response, negative = inhibition, actives largely listed as inhibitors; 310,000 compounds, 3.5% hits; AID 1490; active = well fitted inhibition curve with a large enough effect; inconclusive = small, poorly fitted or top-dose-only effect, or another doubt; inactive = no such curve, though single readings can be large or run the other way;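 also: the enzyme is Sfp with the accession as filed and its product quenches rhodamine fluorescence; potency is read from the fitted curve at half-maximal effect; 0% = enzyme reaction without inhibitor and -100% = no enzyme wells; top concentration of the series not given in the record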
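Buffer: 50 mM Hepes-Na pH 7.6, 10 mM MgCl2, 0.01% Nonidet P-40, 0.01% BSA. Enzyme 15 nM, pre-exposed to compound 15 min; substrates then added and fluorescence change tracked over 30 min.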
TRPV1 potentiator = potentiators of human vanilloid receptor 1 (TRPV1). AID 540277. Q8NER1. potentiation, % at 8.33 µM. TRPV1-expressing cells, Fluo-8 calcium influx, capsaicin EC20 potentiation; host cell line not named in the record; control for the full effect not named in the record. 320,000 compounds, 0.02% hits; active means potentiation above 80%; inconclusive means 30% to 80%; inactive means below 30%; also: 0% is about no effect
Target sequence (Q8NER1 whole entry, looked up): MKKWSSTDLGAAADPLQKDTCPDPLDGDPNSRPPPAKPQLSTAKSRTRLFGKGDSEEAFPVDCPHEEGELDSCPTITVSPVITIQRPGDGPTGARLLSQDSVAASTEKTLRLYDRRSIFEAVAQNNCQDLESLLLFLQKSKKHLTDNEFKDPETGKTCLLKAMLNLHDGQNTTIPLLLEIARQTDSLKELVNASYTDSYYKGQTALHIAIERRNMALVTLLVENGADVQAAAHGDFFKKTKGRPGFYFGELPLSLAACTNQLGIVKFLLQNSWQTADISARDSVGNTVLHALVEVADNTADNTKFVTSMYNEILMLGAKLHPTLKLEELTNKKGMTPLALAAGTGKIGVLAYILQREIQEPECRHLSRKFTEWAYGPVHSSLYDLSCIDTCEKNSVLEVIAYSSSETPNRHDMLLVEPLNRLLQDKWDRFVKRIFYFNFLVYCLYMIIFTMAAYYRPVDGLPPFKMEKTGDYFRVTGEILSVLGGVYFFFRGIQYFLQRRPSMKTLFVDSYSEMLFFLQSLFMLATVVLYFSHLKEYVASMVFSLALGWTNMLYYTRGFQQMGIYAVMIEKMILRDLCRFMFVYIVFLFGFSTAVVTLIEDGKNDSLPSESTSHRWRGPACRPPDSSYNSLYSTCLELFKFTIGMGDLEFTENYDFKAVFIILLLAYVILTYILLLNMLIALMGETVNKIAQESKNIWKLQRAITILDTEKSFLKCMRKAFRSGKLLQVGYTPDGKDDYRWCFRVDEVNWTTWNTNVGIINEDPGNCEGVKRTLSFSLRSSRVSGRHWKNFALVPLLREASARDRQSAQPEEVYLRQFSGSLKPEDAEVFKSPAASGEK
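TRPV1-expressing cells were cultured overnight at 35.5C and loaded with Fluo-8 calcium dye for 40 to 90 min at room temperature. After a 10 s baseline, compound was added and calcium influx was read kinetically for 3 min (ex 480/em 520 nm).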
PINK1 modulator = PINK1 expression modulation; PINK1 immunofluorescence, high-content cytometry, 24 h; Potency, µM (series often up to 76.6 µM), inactives show at the highest dose activation (PINK1 increase), usual class: activators; 410,000 compounds, 0.2% hits; active = well fitted activation curve with a large enough effect; inconclusive = small, poorly fitted or top-dose-only effect; inactive = flat fitted curve, though single readings scatter; cell line not stated here;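 also: potency is read from the fitted curve at half-maximal effect; % of control where 0% means no effect; nearly all actives have a fitted effect of over 65% in size; a mitochondrial uncoupler was the plate control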
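Stable cell line, 250 cells/well, 12 h attachment; compounds pinned at 5 concentrations, 24 h; CCCP control. Fixed with nuclear dye, primary antibodies 12 h at 10 degrees C, secondary plus cell stain; laser-scanning cytometer read.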
TRPML1 ag = agonists of human TRPML1 channel. Q9GZU1. TRPML1-expressing cells, Ca2+ dye fluorescence, FDSS; host cell line not named in the record; reference of the full effect not given here. activation, % (concentration not given with the values). 410,000 compounds, 0.12% hits. AID 624414; in the data active = activation above about 50%; inconclusive = about 30% to 50%; inactive = below about 30%; also: 0% is about no effect; the text of the record puts the active cut at 80%
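Tetracycline-induced TRPML1-DL cells are seeded and incubated overnight before loading with a no-wash Ca2+ dye and quencher. Agonist activity is taken from the 110 s fluorescence read following compound pin-transfer on an FDSS, before EC80 54-4 challenge.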
TRPML1 blocker = inhibitors of human TRPML1 channel; Q9GZU1; 390,000 compounds, 0.02% hits; TRPML1-inducible cells, Ca2+ dye fluorescence, FDSS; active compounds read low; inhibition of EC80 agonist-evoked calcium signal; activity change, negative = inhibition, % (test concentration not listed); AID 624415; in the data active means activity change below about -50%; inconclusive means about -30% to -50%; inactive means above about -30%;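 also: stimulus is agonist 54-4 at its EC80 concentration; % is scaled to controls: 0 for no effect and ±100 for the full control effect; compound concentration not given in the record; the text of the record puts the active cut at -80%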
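Tet-induced TRPML1-DL cells loaded with Ca8 no-wash calcium dye were read kinetically on FDSS. Compound addition was followed by EC80 agonist 54-4 (4 uM final); inhibition was read over 110 s.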
Active calls of the source: *; ? = inconclusive; . = no result given; & = joins results of further samples; [ ] = another dose, or the depositor's remark.

SMILES	Menin MLL FP FL	ClpP mod	Sfp PPTase inh	TRPV1 potentiator	PINK1 modulator	TRPML1 ag	TRPML1 blocker
CN(CC(=O)NCC1CCCO1)S(=O)(=O)c1cc(Cl)ccc1Cl (configuration not stated)	3.0	1.2%	32%[activator]	-4	0.6%	-0.7	4
O=C(/C(Br)=C/Nc1cc(Cl)ccc1Cl)C(F)(F)F	4.4	1.0%	-1%	5	-1.0%	0.1	0
CC1CCCCC1NC(=O)C1CCN(S(=O)(=O)c2cccc3nonc23)CC1 (configuration not stated)	0.4	.	23%	-6	5.5%	0.5	43
O=C(NCC1CCCO1)c1cc([N+](=O)[O-])ccc1Cl (configuration not stated)	-6.5	.	17%	14	-1.8%	0.7	-11
CCc1cc(C(=O)N2CCCC(CNS(=O)(=O)c3cccs3)C2)n(C)n1 (configuration not stated)	-0.5	-2.8%	3%	-13	-0.1%	0.4	0
Cc1ccc(S(=O)(=O)NCCOc2cc(C)ccc2C)cc1	.	-2.6%	10%	-2	-0.5%	1.6	3
CCOC(=O)C1C(C(=O)OC)=C(c2ccc(OC)cc2)c2ccc(OC)cc2N1S(=O)(=O)C(F)(F)F (configuration not stated)	-2.8	?	5%	.	-0.8%	1.1	-15
CC(C(=O)N1CCOCCOCCOCC1)N1C(=O)c2ccccc2C1=O (configuration not stated)	0.0	0.9%	17%	-8	0.7%	1.2	11
CCCCC(=O)Nc1cccc2c1C(=O)N(c1ccccc1)C2=O	3.7	-0.1%	-9%	-5	0.1%	3.6	6
O=C(O)c1ccc(NS(=O)(=O)c2ccc3nnn(O)c3c2)cc1	-2.0	-8.2%	3%	4	-0.4%	-0.2	-4
CN(C)c1ccc(C(=C2c3ccccc3-c3ccccc32)c2ccc(N(C)C)cc2)cc1	.	1.4%	.	.	1.8%	0.0	.
CC(C)c1cc(NCC2CCCO2)n2c(nc3ccccc32)c1C#N (configuration not stated)	-1.3	?	1%	-5	1.4%	-1.1	9
COC1(OC)C(/C=C/c2ccc(Cl)cc2)C(C#N)(C#N)C1(OC)OC (configuration not stated)	3.9	-4.5%	2%	-3	-2.3%	0.3	-17
COc1ccc(SCCN2CC[C@@H](C(C)(C)C)CCC2=O)cc1	.	-1.5%&1.5%	.	-18	1.3%	-0.6&-0.1	-7
O=C(CN1CCN(C(=O)c2cccs2)CC1)NC1CCCCC1	4.8	0.8%	?	0	2.0%	0.3	5
CC(=O)C1=C(O)C(CSCc2ccccc2)N(C)C1=O (configuration not stated)	.	-3.8%	.	.	-3.6%	1.2	36
O=C(Nc1ccccc1)c1cc(S(=O)(=O)Nc2cccnc2)ccc1Cl	.	-0.1%	7%	11	1.5%	-0.2	13
CC(C)c1ccc(/C=C/C(=O)N2CCCCCC2)cc1	-0.5	-1.1%	-9%	0	1.8%	1.4	30
CCOC(=O)Cn1cc(C(=O)OC)c2ccccc21	1.3	-1.4%	6%	1	-0.2%	-0.3	7
COc1ccc(C(CNC(=O)c2cc(S(=O)(=O)N3CCCCC3)ccc2C)N2CCCC2)cc1 (configuration not stated)	.	1.1%	.	.	1.1%	-0.1	-19
Cc1ccc2oc(=O)n(CCCOc3ccccc3)c2c1	-1.3	-0.5%	3%	-12	-2.3%	1.8	-1
CCc1nc2nc(C)cc(Nc3ccc(OC)cc3)n2n1	.	0.7%	.	.	-1.6%	-0.5	-7
NC(=O)c1ncn([C@@H]2O[C@H](CNCc3cc(Br)ccc3OCc3ccccc3)[C@@H](O)[C@H]2O)n1	.	-0.8%	.	.	0.3%	0.0	-5
CC(C)C[C@@H](CN1CCC[C@@H]1CN1C(=O)C(=O)NC[C@@H]1Cc1ccccc1)N1C[C@H](Cc2ccccc2)N(CC2CCCCCC2)C(=O)C1=O	.	1.8%	.	.	1.6%	-0.8	20
Cc1ccc(NC(=S)NCc2ccc3c(c2)OCO3)cc1C	4.1	-2.9%	-3%	-1	-0.4%	0.8	8
CCOC(=O)c1nn(-c2ccc(C)cc2)c(=O)cc1OCC(=O)Nc1cccc(OC)c1	.	-19%	.	-17	9.3%	0.6	13
Cc1ccc(N(CC(=O)N2CCN(c3ccc(F)cc3)CC2)S(=O)(=O)c2c(C)nn(C)c2C)cc1	1.1	-1.3%	-17%	-5	2.8%	0.1	-9
CCCCOC(=O)c1ccc(OC(=O)c2sc3ncn(Cc4cccc(F)c4)c(=O)c3c2C)cc1	.	-27%	.	.	-1.1%	-0.4	-2
Cc1ccc(CC2CC(=O)N(CCc3ccc4c(c3)OCO4)C2=O)cc1 (configuration not stated)	3.9	0.6%	5%	-8	-1.9%	-0.2	1
CC1CCCN(C(=O)CCNS(=O)(=O)c2ccc(Br)cc2)C1 (configuration not stated)	.	-5.4%	.	-22	1.8%	-0.7	0
O=[N+]([O-])c1ccc(S(=O)(=O)Nc2ccc(-c3ccc(N4CCCC4)nn3)cc2)cc1	.	-7.0%	.	9	0.5%	1.5	10
C=CCOc1c(Br)cc(C2C3=C(CCCC3=O)N(C)C3=C2C(=O)CCC3)cc1OCC	3.3	-0.1%	-1%	9	2.0%	-0.9	-2
CCn1ncc(/C=N/N=C2\CCC3C4CCc5cc(O)ccc5C4CCC23C)c1C (configuration not stated)	0.9	-6.9%	15%	2	-2.8%	-0.1	-22
O=C(Nc1ccc2ccccc2c1)c1ccccc1Cl	.	0.3%	.	.	1.6%	-0.9	20
CCSc1ncc(C#N)c(N)n1	0.7	-0.6%	15%	0	2.4%	-0.5	2
C=CCCCCCCCCC(=O)Nc1ncccn1	2.9	-1.7%	21%	-6	-0.5%	.	.
CCc1nnc(NC(=O)CSc2ccc(-c3ccc(C)cc3)nn2)s1	-1.9	-0.8%	?	-26	7.3%	-0.8	5
CS(=O)(=O)N1CCCC(C(=O)N2CCOCC2)C1 (configuration not stated)	1.2	0.2%	19%	-1	.	0.7	-1
COc1ccc(CN(CC2CCCO2)S(=O)(=O)c2ccc(-n3cnnn3)c(OC)c2)cc1 (configuration not stated)	2.1	.	8%	-10	-1.1%	2.1	-10
Cc1ccccc1CSc1nnc(C)n1N	4.9	0.4%	27%	1	?	0.5	19
COc1cccc(C=NNc2nnc(NN=Cc3cccc(OC)c3OC)c3ccccc23)c1OC	.	?	.	.	-4.0%	0.0	31
COCCn1c(=O)c(-c2ccc(F)cc2)nc2cnc(N(C)C)nc21	6.4	.	11%	.	2.0%	.	.
N#CCCN1CCN(S(=O)(=O)c2ccc(S(=O)(=O)N3CCOCC3)cc2)CC1	2.8	-1.4%	10%	20	-2.2%	1.7	46
CCN1CCN(Cc2ccc(NC(=O)Nc3ccc(SC)cc3)cc2)CC1	-1.4	-1.5%	0%	12	9.9%	0.4	-12
Cc1cc(Cl)ccc1OCCCC(=O)NNC(=O)c1ccncc1	.	-4.0%	.	-5	2.6%	2.2	4
COC(=O)[C@@H]1CCCN1Cc1nc(Cc2ccccc2F)no1	0.2	.	2%	-12	0.4%	0.4	37
CC(C)(C)c1ccc(C(=O)Nn2cnnc2)cc1	-0.6	.	8%	11	1.5%	-0.2	-5
CC(=O)c1ccc(N2CCN(S(=O)(=O)c3csc(C(N)=O)c3)CC2)cc1	.	-2.2%	19%	-10	2.0%	0.0	30
CCN(CC)C(=O)C(=O)c1cn(CC(=O)NCc2ccc3c(c2)OCO3)c2ccccc12	-0.4	0.5%	14%	-15	2.1%	-0.6	-11
COc1ccc(NC(=O)Cn2ccc3c(OC)cccc3c2=O)cc1	3.7	.	17%	2	6.0%	0.1	-12
(continued)
SMILES	Menin MLL FP FL	ClpP mod	Sfp PPTase inh	TRPV1 potentiator	PINK1 modulator	TRPML1 ag	TRPML1 blocker
CCC(C)n1c(SCc2ccc(C(C)(C)C)cc2)nc2ccsc2c1=O (configuration not stated)	.	-1.0%	.	.	-0.1%	7.0	-22
Cc1cc(C(=O)Nc2ccc3c(c2)OCCO3)ccc1[N+](=O)[O-]	1.8	2.3%	11%	1	1.3%	2.4	-3
CCOC(=O)N1CCN(C(=O)COC(=O)c2ccc(O)cc2O)CC1	0.3	.	16%	-3	1.4%	0.0	58
CC(N=c1ccccn1C(=O)Nc1ccc(Cl)cc1)c1ccco1 (configuration not stated)	1.1	25%	4%	3	.	1.1	19
COc1cccc(C(O)c2nc(/C=C/c3ccc(C(F)(F)F)cc3)cs2)c1 (configuration not stated)	.	28µM*	.	.	6.4%	1.0	.
O=C(Nc1nc2ccccc2[nH]1)c1ccccc1[N+](=O)[O-]	3.1	.	-1%	-1	7.9%	-0.2	23
CCCCn1c(Oc2cccc(C(=O)OC)c2)nc2c1c(=O)n(C)c(=O)n2C	.	0.3%	.	.	-0.8%	0.2	17
Cc1cc(/C=C/c2ccnc3ccccc23)ccc1N	.	-3.2%	.	.	3.1%	27	.
Cc1ccc(C(=O)NCc2cccnc2)cc1S(=O)(=O)Nc1ccccc1	0.1	.	10%	12	0.5%	1.3	3
Cc1ccc(CN2CC(N3CCN(C)CC3)CS2(=O)=O)cc1 (configuration not stated)	.	-2.3%	.	.	0.8%	-0.1	.

Overlap with the part before: two entries, followed by the next part.
SMILES	Menin MLL FP FL	ClpP mod	Sfp PPTase inh	TRPV1 potentiator	PINK1 modulator	TRPML1 ag	TRPML1 blocker
Cc1ccc(C(=O)NCc2cccnc2)cc1S(=O)(=O)Nc1ccccc1	0.1	.	10%	12	0.5%	1.3	3
Cc1ccc(CN2CC(N3CCN(C)CC3)CS2(=O)=O)cc1 (configuration not stated)	.	-2.3%	.	.	0.8%	-0.1	.
CCOc1ccc(C2c3c(-c4ccc(C)cc4)n[nH]c3C(=O)N2c2ccc(Cl)cc2)cc1 (configuration not stated)	.	-1.9%	.	.	15%	1.1	-12
CC(=O)Nc1nonc1-c1nnc(SCc2ccccc2Cl)n1C	.	-0.2%	.	.	1.6%	1.2	-8
CCOc1ccc(C(=O)NCC(c2ccco2)N2CCOCC2)cc1 (configuration not stated)	.	-8.4%	.	-2	-0.1%	-0.3	-9
CCn1cc2nc(SCC(=O)Nc3cccc(Cl)c3C)n(Cc3ccc(Cl)cc3)c(=O)c2n1	.	-3.1%	.	.	7.9%	-0.3	-19
COc1ccccc1CN1CCC2(CC1)CCN(C(=O)c1cc(C(F)(F)F)cc(C(F)(F)F)c1)CC2	2.3	.	5%	.	0.8%	.	.
CC1CCCC/C1=N/Nc1ccc([N+](=O)[O-])cc1[N+](=O)[O-] (configuration not stated)	5.3	-1.1%	-5%	-7	-0.1%	0.0	4

Not a hit list; overall some 4.4% were active at least once.
